From PubChem BioAssay
TsaE inh = YjeE (TsaE) inhibition, E. coli | actives 0.05% (n = 71,000) | AID 605 | Potency, µM | purified YjeE, fluorescence polarisation of a bound ADP probe; active = well fitted falling curve; inconclusive = weaker or top-dose-only fall, or a rising curve; inactive = flat or poorly fitted curve;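 also: top concentration of the series not given in the record; excess ADP was the control for the full effect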
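Fluorescence polarization of a BODIPY Texas Red–ADP probe (2 uM) bound to purified YjeE (10 uM) was read after 15 min room-temperature incubation with compounds. Loss of polarization marks inhibitors; ADP serves as titrated control.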
PK Bst = pyruvate kinase (B. stearothermophilus) modulation; partly purified Bacillus stearothermophilus pyruvate kinase, luminescence ATP production; ribose 5-phosphate activator present at AC10; Potency, µM; actives 1.2% (n = 51,000); AID 361; in the data active means potency below about 11 µM; inconclusive means mostly about 12 µM to 25 µM; inactive means weaker than that;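 the screen sought inhibitors and activators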;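 also: potency is read from the fitted curve at half-maximal effect; scaled between full activation by ribose 5 phosphate and full inhibition by luteolin; about four in five hits inhibit and the cells do not say which; series up to 57 µM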
* marks the source's active call; other numbers are inactive results; i = inactive; ? = inconclusive; / = no result given. Some of the compounds tested; rates above refer to the full screens.

The line under a structure holds: PK Bst, TsaE inh
- Cc1cc(=O)[nH]c(SCC(=O)N2CCC(C(N)=O)CC2)n1
    >57, i
- Cc1onc(-c2ccccc2Cl)c1C(=O)Nc1sc2c(c1C#N)CCC2
    >57, i
- CC1(c2ccc3noc(-c4ccccc4)c3c2)OCCO1
    >57, i
- O=C(Oc1ccc(OC(=O)c2ccncc2)cc1)c1ccncc1
    >57, i
- Cc1ccc(NC(=O)CC2NCCNC2=O)cc1 (centres undefined)
    >57, i
- CCc1ccc2c(c1)c1nc(C)sc1n2CC
    ?, i
- CCn1c(=O)c(=O)[nH]c2cc(C(=O)N3CCN(c4ccccc4F)CC3)ccc21
    >57, ?
- c1ccc(CSc2nnc(-c3ccco3)n2Cc2ccccc2)cc1
    >57, i
- O=C(c1ccccc1-c1ccccc1)N1CCOCC1
    >57, i
- Cc1nc(N2CCN(C)CC2)c2c(C)c(C(=O)Nc3ccc(F)cc3)sc2n1
    >57, i
- COc1ccc2nccc(C(=O)O)c2c1
    /, i
- N#Cc1nc(-c2ccc(Cl)cc2)oc1NCc1ccco1
    >57, i
- Cn1c(C(=O)N2CCN(c3ncccn3)CC2)cc2c(=O)n(C)c3ccccc3c21
    /, i
- CC1=C(C(=O)OC(C)C)C(c2cccnc2)n2ncnc2N1 (centres undefined)
    /, i
- CC(=O)N1[C@H](Cc2ccccc2)C=C[C@]1(C)C(=O)NCc1cc(F)cc(C(F)(F)F)c1
    /, i
- O=C(Oc1ccc(-c2cn3c(n2)SCC3)cc1)c1ccccc1
    /, i
- CC1=C(C(N)=O)C(c2ccc(Cl)cc2)NC(=O)N1 (centres undefined)
    >57, i
- O=C(NCc1cccs1)C1CCN(S(=O)(=O)c2ccc3c(c2)OCCO3)CC1
    >57, i
- C=CCn1nnnc1SCC(=O)Nc1ccccc1C(=O)OC
    >57, i
- COCCCNC(=O)c1ccc(Cn2c(=O)[nH]c3ccccc3c2=O)cc1
    /, i

(further entries)
The line under a structure holds: PK Bst, TsaE inh
- CN(C)CCNc1nc2c(c(=O)[nH]c(=O)n2C)n1CC(O)COc1ccc(Cl)cc1Cl (centres undefined)
    >57, i
- c1coc(CNc2nc(N3CCCCC3)nc3ccccc23)c1
    >57, i
- CCOC(=O)C1(Cc2ccc(O)cc2)NC(c2ccccc2F)C2C(=O)N(C)C(=O)C21 (centres undefined)
    >57, i
- CS(=O)(=O)c1ncc(Cl)c(C(=O)Nc2ccc(N3CCOCC3)cc2)n1
    >57, i
- Cc1ccc(NC(=O)CSc2nccc(=O)[nH]2)c(S(=O)(=O)N2CCOCC2)c1
    >57, i
- CCOc1nc(NCCC2=CCCCC2)nc(N2CCOCC2)n1
    >57, i
- CC/C(C)=N/O
    /, i
- O=C(O)C1C2C=CC(C2)C1C(=O)OCC1CCCO1 (centres undefined)
    /, i
- CC(=O)NCCc1c(Cc2ccccc2)[nH]c2ccccc12
    /, i
- COc1ccc(OC)c(C2C3=C(N=C4SCC(=O)N42)c2ccccc2CC3)c1 (centres undefined)
    /, i
- COc1cccc(Cn2c(=O)c(CCc3ccccc3)nc3cncnc32)c1
    /, i
- COc1ccc(N(CC(=O)NC2CCCC2)C(=O)c2ccc(N3CCCCC3)nc2)cc1
    >57, i
- CC1(C)CC(=O)C2=C(C1)NCN(Cc1ccc3c(c1)OCO3)C2
    >57, i
- Cc1sc2ncnc(NCc3ccco3)c2c1C
    /, i
- O=c1/c(=C\c2cccn2-c2ccccc2)sc2nc3ccccc3n12
    >25.6, /
- COc1ccc(S(=O)(=O)Nc2nnc(C(C)(C)C)s2)cc1
    /, i
- CCc1ccc(-c2nc(CSCC(=O)NCCCN3CCCC3=O)c(C)o2)cc1
    /, i
- O=C(O)c1cc2cc(Cl)ccc2oc1=O
    >57, i
- O=C(C1CCCO1)N1CCN(S(=O)(=O)c2cccc3nsnc23)CC1 (centres undefined)
    /, i
- COc1ncc2nc(CCc3ccccc3)c(=O)n(Cc3cccs3)c2n1
    /, i

The listing continues:
The line under a structure holds: PK Bst, TsaE inh
- CC(C)n1c(=NC(=O)c2ccco2)c(C#N)cc2c(=O)n3ccccc3cc21
    >57, i
- C=CCn1c(SCC(=O)NC(=O)NCc2ccco2)nc2sc(CC)cc2c1=O
    >57, i
- CCCNC(=O)C1CN(S(=O)(=O)c2ccccc2)CCN1S(=O)(=O)c1ccccc1 (centres undefined)
    >57, i
- COCCNC(=O)c1nn(-c2cc(OC)cc(OC)c2)c(=O)c2ccccc12
    >57, i
- O=C(NCCCn1ccnc1)c1cccnc1
    >25.6, /
- CCC(=O)N1c2ccccc2NC2=C(C(=O)CCC2)C1c1ccc(N(C)C)cc1 (centres undefined)
    >57, i
- CCOCCOc1nc2c(c(=O)n(C)c(=O)n2C)n1CCc1ccccc1
    >57, i
- OC[C@@H](O)[C@@H](O)[C@@H](O)[C@@H](O)c1nc2ccc(Cl)cc2[nH]1
    /, i
- COc1ccc(-c2cc(=O)[nH]c(NCc3ccccc3)n2)cc1
    >57, i
- CCCCn1ccc(=O)c2c(C(F)(F)F)nccc21
    /, i
- CN(C)c1ccc(C2N([C@H](C#N)c3ccc(N(C)C)cc3)CCCN2[C@@H](C#N)c2ccc(N(C)C)cc2)cc1 (some centres undefined)
    /, i
- Cc1cccc(NC(=O)CSc2nnc(-c3ccccc3C)o2)c1
    >57, i
- COC(=O)[C@@]1(Cc2ccc(OC)cc2)[C@H]2c3cc(C(=O)N4CCCC4)n(CCSCCO)c3C[C@H]2CN1C(=O)c1ccccc1
    /, i
- Cn1c(=O)c2c(ncn2CCCNC2=CC(C)(C)CC(=O)C2)n(C)c1=O
    >57, i
- CCN1C(=O)C(C)S/C1=N\S(=O)(=O)c1ccc(Cl)s1 (centres undefined)
    >57, i
- Cc1ccnc(-n2sc3ccccc3c2=O)n1
    i, i
- N#CC1(P(=O)(c2ccccc2)c2ccccc2)CC1
    >25.6, /
- CCOC(=O)C1CCCN(C2CC(=O)N(c3ccc(C)c(C)c3)C2=O)C1 (centres undefined)
    >57, i
- CCOC(=O)C1=C(C)NC(=O)NC1c1ccc(OC(C)C(=O)O)c(OC)c1 (centres undefined)
    i, i
- CCOc1cc(C2Nc3ccccc3C(=O)N2c2ccccc2OC)ccc1O (centres undefined)
    >25.6, /

The list goes on:
The line under a structure holds: PK Bst, TsaE inh
- CS(=O)(=O)N1CCCC(C(=O)N2CCc3ccccc3C2)C1 (centres undefined)
    >57, i
- COc1ccc(Br)cc1CNC(=O)CCN1C(=O)COc2ccccc21
    >57, i
- CSc1cccc(-n2c(C)cc(C(N)=O)c2C)c1
    >57, i
- COC(=O)c1cc2c(=O)n3ccccc3nc2n(Cc2cccnc2)c1=N
    >57, i
- Cc1nn(-c2ccccc2)c2c1C1(C(=O)Nc3ccccc31)N1C(=N2)Sc2ccccc21 (centres undefined)
    >57, i
- C=C1C(=O)C=C2CN(C(=O)c3ccccc3)[C@@](Cc3ccc(OC)cc3)(C(=O)OC)[C@@H]12
    /, ?
- COc1ccc(S(=O)(=O)Nc2ccc(S(=O)(=O)N3CCCCC3)cc2)cc1
    >57, i
- Cc1onc(-c2c(F)cccc2Cl)c1C(=O)NCc1ccco1
    /, i
- Cc1cc(S(=O)(=O)Nc2ccccc2C)ccc1F
    i, i
- O=C(O)CNCCc1ccccc1
    /, i
- CCSC(N)=Nc1ccc(C(F)(F)F)cc1
    /, i
- COc1ccc(OC)c(C(C(=O)NCc2ccco2)N(C(=O)Cn2nnc3ccccc32)C2CC2)c1 (centres undefined)
    >57, i
- CCCCOC(=O)Sc1nc2ccccc2o1
    /, i
- S=c1nc(C2CCCCC2)[nH][nH]1
    >57, i
- Cc1ccc(NC(=O)CN2CCC3(O)CCCCC3C2c2ccc3c(c2)OCO3)c(C)c1 (centres undefined)
    >57, i
- CC1(C)OC(=O)N(c2cccnc2)C1(C)O (centres undefined)
    >57, i
- CN1CCN(c2ncc3ncc(=O)n(C[C@H]4CCCO4)c3n2)CC1
    /, i
- CCC(=O)Nc1nc(C)c(C(=O)N2CCCCC2)s1
    >57, i
- Cc1cc(NC(=O)CC(C)(C)C)nc2c1c(=O)oc1ccccc12
    >57, i
- CC1CCCN(c2nc3c(c(=O)[nH]c(=O)n3C)n2Cc2ccccc2Cl)C1 (centres undefined)
    /, i

Next section.
The line under a structure holds: PK Bst, TsaE inh
- CN(C)CCCN1C(=O)C(=O)/C(=C(/O)c2ccncc2)C1c1ccccc1 (centres undefined)
    >57, i
- COc1ccc(NCc2nnc(SCC(=O)N3CCCc4ccccc43)o2)cc1
    >57, i
- CCc1ccccc1NC(=O)CSc1nc2ccccc2n1CC(=O)N(C)C
    >57, i
- COc1ccc(CNc2ccnc(-c3cccc(C#N)c3)n2)c(OC)c1
    /, i
- Cc1cc(C(=O)COC(=O)C2COc3ccccc3O2)c(C)n1CC1CCCO1 (centres undefined)
    i, i
- O=C(O)C1CCC(=O)N1Cc1ccccc1Cl (centres undefined)
    >57, i
- CC(C)CCNC(=O)NC(=O)COc1ccccc1C#N
    >57, i
- COc1cc(C(=O)N2CCN(Cc3ccccc3C(F)(F)F)CC2)cc(OC)c1OC
    /, i
- Cc1ccsc1C(=O)OCC(=O)Nc1sccc1C(N)=O
    /, i
- CCOc1cc(CO)ccc1OCC(=O)N1CCCCC1
    >57, i
- COc1ccc(S(=O)(=O)N2CCCC(C(=O)NCc3ccco3)C2)cc1Cl (centres undefined)
    >57, i
- Cc1ccc(S(=O)(=O)CCc2nnc(NC(=O)C3CCCO3)s2)cc1 (centres undefined)
    i, i
- Cc1noc(C(=O)NCc2ccco2)c1Cl
    /, i
- COc1ccc(CNc2oc(COc3ccc(Cl)cc3)nc2C#N)cc1
    >25.6, /
- CNc1oc(-c2ccc(OCc3ccccc3)cc2)nc1C#N
    i, i
- CC1(C)CN=C(N2CCN(C3=NCC(C)(C)S3)CC2)S1
    >57, i
- COc1ccc(-n2nnnc2SC(C)C(N)=O)cc1 (centres undefined)
    >57, i
- COC(=O)[C@@H](NC(=O)Nc1ccc(OC)cc1)C(C)C
    >57, i
- COc1ccc(CC(=O)Nc2c3c(nn2-c2cccc(Cl)c2)CS(=O)(=O)C3)cc1
    >57, i
- COC(=O)[C@H](C)NC(=O)NCc1ccc(F)cc1
    >57, i

Laid out differently: results already given.
structure,PK Bst,TsaE inh
CCc1ccc2c(c1)c1nc(C)sc1n2CC,?,i
CCn1c(=O)c(=O)[nH]c2cc(C(=O)N3CCN(c4ccccc4F)CC3)ccc21,>57,?
c1ccc(CSc2nnc(-c3ccco3)n2Cc2ccccc2)cc1,>57,i
O=C(c1ccccc1-c1ccccc1)N1CCOCC1,>57,i
Cc1nc(N2CCN(C)CC2)c2c(C)c(C(=O)Nc3ccc(F)cc3)sc2n1,>57,i
COc1ccc2nccc(C(=O)O)c2c1,/,i
N#Cc1nc(-c2ccc(Cl)cc2)oc1NCc1ccco1,>57,i

(list continues)
The line under a structure holds: PK Bst, TsaE inh
- COCCn1c(NCc2ccc(C)cc2)nc2c1c(=O)[nH]c(=O)n2C
    >57, i
- Cc1c(C(=O)NCc2ccccn2)sc2nc(-c3ccc(F)cc3)cn12
    i, i
- CC(C)COC[C@H](CN(Cc1ccccc1)c1ccccc1)N1CCCC1
    /, i
- CCCC[C@@H]1C[C@H]1C(NC(=O)c1ccccc1)c1ccccc1 (some centres undefined)
    /, i
- COc1ccccc1NC(=O)N(CCN(C)C)Cc1cc2cc(C)ccc2[nH]c1=O
    /, i
- C/C(NC1CCCC1)=C(/C#N)C(N)=O
    >57, i
- CC1=C(n2nnc3ccccc32)C(c2ccccc2)C(C#N)=C(N)O1 (centres undefined)
    /, i
- CC(C)CC(=O)CN1C(=O)C2(OCCO2)c2ccccc21
    >57, i
- CC(=O)Nc1ccc(OC[C@@H](O)CNC(C)C)cc1
    /, i
- COc1ccc2[nH]cc(CCNc3cc(-c4ccccc4C)ncn3)c2c1
    /, i
- CC(Sc1nnc(-c2ccc(O)cc2)o1)C(=O)Nc1cccc2ccccc12 (centres undefined)
    /, i
- C=CCn1c2ccccc2c2nnc(SC(CC)C(=O)Nc3nc(C)c(C(=O)OCC)s3)nc21 (centres undefined)
    >57, i
- Clc1ccc(Sc2oc(/C=N/n3cnnc3)cc2Br)cc1
    /, i
- Cc1cccc(NC(=O)c2cc(S(=O)(=O)NCc3ccco3)ccc2F)c1C
    >57, i
- CCOC(=O)N1CCN(C(c2ccc(F)cc2)c2sc3nc(C)nn3c2O)CC1 (centres undefined)
    /, i
- CCCCCCn1c(CN2CCN(Cc3ccccc3)CC2)nc2c1c(=O)n(C)c(=O)n2C
    >57, i
- O=C(NCc1ccc2c(c1)OCO2)C1CCN(c2ccc(S(=O)(=O)N3CCCC3)cc2)CC1
    >57, i
- O=S1(=O)CC=C(CSc2nc3ccccc3[nH]2)C1
    >57, i
- CN(C(=O)c1ccc(S(=O)(=O)NC2CCCC2)cc1)C1CCCCC1
    >57, i
- CC1=C(C(=O)N2CCOCC2)C(c2ccsc2)C2=C(CCCC2=O)N1 (centres undefined)
    >57, i

Further records follow.
The line under a structure holds: PK Bst, TsaE inh
- CCCc1ccc(OCCNC(C)=O)cc1
    >57, i
- COc1ccc(CCCO[C@@H](Cn2ccnc2)c2ccc(OC)cc2)cc1
    /, i
- Nc1ncnc2c1cnn2-c1ccccc1
    /, i
- Cc1ccccc1CSc1nncn1N
    >57, i

Grouped by structure, those above with a tert-butyl group (2)
The line under a structure holds: PK Bst, TsaE inh
- COc1ccc(S(=O)(=O)Nc2nnc(C(C)(C)C)s2)cc1
    /, i
- Cc1cc(NC(=O)CC(C)(C)C)nc2c1c(=O)oc1ccccc12
    >57, i
